# YB-1 expression = YB-1 expression inhibition | U2OS, qRT-PCR YB-1 vs CDIP delta delta Cp, 16 h; active compounds read high; zero = DMSO, each unit about twofold | 30,000 compounds, 0.37% hits | delta delta Cp (YB-1 minus CDIP) (concentration not given with the values);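 active means delta delta Cp rounded down to an integer at or above 3, about 3 SD of DMSO wells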;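 further: higher means less YB-1 transcript or more CDIP transcript relative to DMSO; stock transfer was 100 nL into about 100 µL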
# Hedgehog inh = Sonic Hedgehog pathway inhibition; Shh-LIGHT2 Gli-luciferase reporter, 30 h; inhibition, % (no concentration beside the values); 22,000 compounds, 2.1% hits; AID 2313;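 active means replicate mean of 65% or more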;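 further: pathway switched on by Shh-conditioned medium diluted 1 in 25 in low serum; 100 nL library stock added to about 40 µL; 0% = median of neutral wells and 100% = positive control level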
# PD-1 reverse act = reversal of PD-1 mediated T-cell inhibition. primary human CD4 T cells, PD-L1 beads, CellTiter-Glo 96 h. activation, % (concentration not given with the values). 29,000 tested, under 10 active;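 active means replicate mean of 50% or more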;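 further: 0% = median vehicle wells and 100% = positive control; 100 nL library stock added to about 50 µL; numbers are from one replicate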
# MITF inh = MITF inhibition. TRPM1 promoter luciferase, luminescence, 24 h. 37,000 compounds, 0.28% hits. inhibition, % (concentration not given with the values). AID 2240;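 active means most replicates at 85% or more, or half of them and the mean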;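 further: human melanocyte line stably carrying TRPM1 promoter luciferase reporter; 0% = vehicle wells and 100% = a positive control; the first replicate is given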
# * hit, by the source's call; . = not tested or not shown; & = joins results of further samples.
# The line under a structure holds: YB-1 expression	MITF inh	Hedgehog inh	PD-1 reverse act
- C#C[C@]1(O)CCC2C3CCC4=CC(=O)CC[C@@H]4C3CC[C@@]21C (stereo partly drawn)
→ 0.313	-2.5	-44.4	.
- C[C@H](CO)N1C[C@H](C)[C@H](CN(C)Cc2ccc3c(c2)OCO3)Oc2ccc(NS(=O)(=O)c3ccc(Cl)cc3)cc2CC1=O
→ 0.095	3.8	47.8	2.9
- Cc1ccc(S(=O)(=O)N(C)C[C@H]2Oc3c(NS(=O)(=O)c4cccs4)cccc3C(=O)N([C@@H](C)CO)C[C@@H]2C)cc1
→ 0.0319	0.7	-39.5	.
- COc1ccc(CN(C)C[C@H]2Oc3ccc(NS(=O)(=O)c4ccccc4)cc3C(=O)N([C@H](C)CO)C[C@@H]2C)cc1
→ 0.286	0.1	12.4	-1.7
- Cc1ccc(S(=O)(=O)Nc2cccc3c2O[C@H](CN(C)C(=O)NC2CCCCC2)[C@@H](C)CN([C@@H](C)CO)C3=O)cc1
→ 0.223	-7.9	-12.2	-0.8
- COc1ccc(NC(=O)N(C)C[C@H]2Oc3ccc(NS(=O)(=O)c4ccc(C)cc4)cc3C(=O)N([C@@H](C)CO)C[C@H]2C)cc1
→ -0.0976	4.0	2.5	0.2
- CCC1(c2ccccc2)C(=O)NCNC1=O
→ -0.419	-14.9	-31.7	.
- Cc1ccc(S(=O)(=O)N(C)C[C@H]2Oc3ccc(NC(=O)CCCCCC(=O)Nc4ccccc4N)cc3C(=O)N([C@H](C)CO)C[C@@H]2C)cc1
→ -0.219	4.8	.	0.2
- COc1ccc(C(=O)CSc2nc3ccccc3c(=O)[nH]2)cc1OC
→ .	-43.5	.	-2.0
- C[C@@H]1CCCCO[C@@H](CN(C)Cc2ccc(Cl)c(Cl)c2)[C@@H](C)CN([C@H](C)CO)C(=O)c2cc(NC(=O)C3CCCCC3)ccc2O1
→ -0.868	49.8	.	-2.4
- Cc1noc(C)c1NC(=O)Nc1cccc2c1O[C@@H](CN(C)S(C)(=O)=O)[C@@H](C)CN([C@H](C)CO)C2=O
→ 0.19	-0.6	-18.4	2.0
- C[C@H](CO)N1C[C@H](C)[C@H](CN(C)C)Oc2ccc(NC(=O)Cc3ccccc3)cc2CC1=O
→ 0.0426	-11.8	55.5	.
- C[C@H](CO)N1C[C@H](C)[C@@H](CN(C)C(=O)Nc2cccc3ccccc23)Oc2c(NS(=O)(=O)c3ccc(Cl)cc3)cccc2C1=O
→ 0.0881	-2.1	-3.4	1.6
- CCOc1cc(S(=O)(=O)NCc2ccco2)c(C)cc1C
→ .	-37.9	.	-2.6
- C[C@@H]1CN([C@H](C)CO)C(=O)Cc2cc(NS(=O)(=O)c3ccc(F)cc3)ccc2O[C@@H]1CN(C)S(=O)(=O)c1cccs1
→ -0.3	-0.3	7.5	-1.0

# Quoted at random: two records from the list
# The line under a structure holds: YB-1 expression	MITF inh	Hedgehog inh	PD-1 reverse act
- C[C@H](CO)N1C[C@H](C)[C@@H](CN(C)C(=O)Nc2cccc3ccccc23)Oc2c(NS(=O)(=O)c3ccc(Cl)cc3)cccc2C1=O
→ 0.0881	-2.1	-3.4	1.6
- C[C@@H]1CCCCO[C@@H](CN(C)Cc2ccc(Cl)c(Cl)c2)[C@@H](C)CN([C@H](C)CO)C(=O)c2cc(NC(=O)C3CCCCC3)ccc2O1
→ -0.868	49.8	.	-2.4

# (list continues)
# The line under a structure holds: YB-1 expression	MITF inh	Hedgehog inh	PD-1 reverse act
- C[C@H](CO)N1C[C@H](C)[C@H](CN(C)Cc2ccccc2)Oc2ccc(NC(=O)NC3CCCCC3)cc2C1=O
→ -0.345	2.5	.	1.8
- Cc1noc(C)c1NC(=O)N(C)C[C@H]1Oc2ccc(NS(=O)(=O)c3ccccc3)cc2C(=O)N([C@@H](C)CO)C[C@@H]1C
→ 0.123	-0.2	.	2.7
- O=C(CCN1C(=O)C2C3C=CC(C3)C2C1=O)Nc1cccc2ccccc12 (stereo not drawn)
→ .	21.1	.	0.3
- COc1ccc(NC(=O)Nc2ccc3c(c2)CC(=O)N([C@H](C)CO)C[C@@H](C)[C@H](CN(C)S(=O)(=O)c2cn(C)cn2)O3)cc1
→ -0.139	-5.9	-7.9	1.4
- CS(=O)(=O)N(CC(=O)Nc1cccc(F)c1)c1cccc(F)c1
→ .	-8.8	.	1.9
- C[C@@H]1CN([C@@H](C)CO)C(=O)c2cc(NS(=O)(=O)c3cccs3)ccc2O[C@@H]1CN(C)C(=O)Nc1ccc(F)cc1
→ -0.015	10.5	9.7	-0.4
- COC(=O)c1sc2ncn(CC(=O)Nc3cccc(Cl)c3C)c(=O)c2c1C
→ .	-0.8	.	-0.3
- C[C@H]1CN([C@@H](C)CO)C(=O)c2cc(NC(=O)Cc3cn(C)c4ccccc34)ccc2O[C@@H]1CN(C)C(=O)Nc1ccc2c(c1)OCO2
→ 0.13	7.7	.	.
- CCOC(=O)c1c(C)n(-c2cccc(C)c2)c2ccc(O)cc12
→ -0.196	51.4	35.3	-5.8
- C[C@@H]1CN([C@H](C)CO)C(=O)Cc2cc(NC(=O)Cc3ccccc3)ccc2O[C@H]1CN(C)CC1CC1
→ 0.0455	3.6	-21.3	0.5
- C[C@@H]1CN([C@H](C)CO)C(=O)c2cccc(NC(=O)c3nc4ccccc4s3)c2O[C@@H]1CN(C)Cc1ccc(C(F)(F)F)cc1
→ 0.422	-7.4	-33.6	-2.4
- C[C@@H]1CN([C@H](C)CO)C(=O)Cc2cc(NC(=O)NC3CCCCC3)ccc2O[C@H]1CN(C)C(=O)NC1CCCCC1
→ -0.255	16.6	-9.7	2.3
- COc1ccc(NC(=O)Nc2ccc3c(c2)CC(=O)N([C@H](C)CO)C[C@@H](C)[C@H](CN(C)C(=O)NC(C)C)O3)cc1
→ 0.289	-28.8	-12.9	.
- C[C@@H]1CN([C@@H](C)CO)C(=O)c2cc(NC(=O)CCC(F)(F)F)ccc2O[C@H]1CN(C)CC1CCCCC1
→ -0.282	6.6	4.3	.
- C[C@@H]1CN([C@H](C)CO)C(=O)c2cccc(NC(=O)C3CCOCC3)c2O[C@H]1CN(C)C
→ -0.384	-4.7	-0.5	2.3
- C[C@@H]1CN([C@@H](C)CO)C(=O)c2cc(NS(=O)(=O)c3cn(C)cn3)ccc2O[C@H]1CN(C)C
→ -1.12	-3.9	-39.8	1.5
- C[C@H](CO)N1C[C@H](C)[C@@H](CN(C)Cc2ccc(Oc3ccccc3)cc2)Oc2ccc(NS(=O)(=O)c3ccccc3)cc2C1=O
→ -0.0457	3.6	.	-3.6
- Cc1ccc(S(=O)(=O)Nc2ccc3c(c2)C(=O)N([C@H](C)CO)C[C@H](C)[C@@H](CN(C)Cc2ccc(-c4ccccc4)cc2)O3)cc1
→ -0.0666	-1.2	.	-1.4
- C[C@@H]1CN([C@H](C)CO)C(=O)Cc2cc(NC(=O)C3CC3)ccc2O[C@H]1CN(C)Cc1ccc(C(F)(F)F)cc1
→ -0.0554	4.4	15.2	-0.4
- COc1ccc(S(=O)(=O)N(C)C[C@H]2Oc3c(NC(=O)C4CC4)cccc3C(=O)N([C@H](C)CO)C[C@@H]2C)cc1
→ 0.0233	-5.0	6.9	.
- CC(=O)Nc1ccc(OCC(O)Cn2cnc3ccccc32)cc1 (stereo not drawn)
→ .	-15.1	.	-0.9
- Cc1cc(I)ccc1NC(=O)CN(c1cc(Cl)ccc1C)S(C)(=O)=O
→ .	-4.6	.	-0.2
- CCN1/C(=C2/SC(=S)NC2=O)Sc2ccccc21
→ -0.401	-12.4	-33.4	0.2
- O=C(Cn1nc(C(F)(F)F)c2c1CCCCC2)Nc1ccc(S(=O)(=O)N2CCCC2)cc1
→ .	27.0	.	0.2
- C[C@@H]1CN([C@H](C)CO)C(=O)c2cccc(NC(=O)C3CC3)c2O[C@@H]1CN(C)Cc1ccc(-c2ccccc2)cc1
→ -0.483	-5.7	23.1	1.5
- C[C@@H]1O[C@@H](Oc2cc(O)c3c(=O)c(O[C@@H]4O[C@@H](C)[C@H](O[C@@H]5O[C@@H](C)[C@H](O)[C@@H](O)[C@H]5O)[C@@H](O)[C@H]4O)c(-c4ccc(O)cc4)oc3c2)[C@H](O)[C@H](O)[C@H]1O
→ 0.458	.	-11.3	.
- CCOC(=O)Nc1c[n+](N2CCOCC2)no1
→ 0.257	-21.3	-53.6	.
- COc1cc(CO)ccc1Oc1nc([N+](=O)[O-])nn1Cc1ccccc1F
→ .	28.4	.	-2.3
- O=S(=O)(C1=CC23CCCC2(C=C(S(=O)(=O)c2ccc(Cl)cc2)C3)C1)c1ccc(Cl)cc1 (stereo not drawn)
→ -0.751	9.4	.	-1.0
- NC(=O)c1ccc(NC(=O)C2CCCN(S(=O)(=O)c3ccc(Br)cc3)C2)cc1 (stereo not drawn)
→ .	-2.9	.	1.7
- C[C@H]1CN([C@@H](C)CO)C(=O)c2cc(NC(=O)Nc3ccc(F)cc3)ccc2O[C@@H]1CN(C)S(=O)(=O)c1ccc(F)cc1
→ -0.828	-10.6	.	0.5
- O=C(CSc1nc2ccccc2s1)Nc1ccccc1N1CCOCC1
→ .	35.6	.	-2.5
- O=C(Nc1ccccc1-c1nc2ccccc2s1)c1ccc(-c2ccccc2[N+](=O)[O-])o1
→ .	19.5	.	-1.0
- CC(=O)NC1=NN(C(C)=O)C(C)(CS(=O)(=O)c2ccc(C)cc2)S1 (stereo not drawn)
→ -0.605	11.5	.	1.1
- C[C@@H]1CN([C@H](C)CO)C(=O)c2cc(N(C)C)ccc2O[C@@H]1CN(C)Cc1ccccc1
→ 0.0253	-1.2	0.1	1.8
- C[C@@H]1CN([C@H](C)CO)C(=O)c2cc(NC(=O)Cc3cn(C)c4ccccc34)ccc2O[C@H]1CN(C)C(=O)Nc1ccc(C(F)(F)F)cc1
→ -0.143	26.2	-4.4	-0.7
- C[C@@H]1CN([C@@H](C)CO)C(=O)c2cccc(NC(=O)C3CC3)c2O[C@H]1CN(C)S(=O)(=O)c1ccc(Cl)cc1
→ 0.0201	4.0	53.3	.
- O=C(NCc1ccco1)C1CC(=O)N(c2ccc(O)cc2)C1 (stereo not drawn)
→ .	3.1	.	-0.4
- O=C1OCCN1/N=C/c1ccc([N+](=O)[O-])o1
→ 0.527&0.83	-1.5&3.8	-56.1&-25.4	2.4
- CCn1c2c(c3cc(OCc4ccccc4)ccc31)CCCC2=O
→ 0.284	-25.0	76.8*	0.5
- C[C@H]1CN([C@@H](C)CO)C(=O)c2cccc(NC(=O)c3ccc(-c4nccs4)cc3)c2O[C@@H]1CN(C)Cc1ccc2c(c1)OCO2
→ -0.144	11.7	49.1	2.2
- C[C@@H]1CN([C@@H](C)CO)C(=O)c2cc(NS(=O)(=O)c3ccc(F)cc3)ccc2O[C@@H]1CN(C)CC1CC1
→ 0.115	8.2	-12.0	-1.2
- C[C@@H]1CCCCO[C@H](CN(C)C)[C@@H](C)CN([C@H](C)CO)C(=O)c2cc(N(C)C)ccc2O1
→ 0.0145	-24.8	-15.7	1.9
- C[C@H](CO)N1C[C@H](C)[C@H](CN(C)S(=O)(=O)c2cn(C)cn2)Oc2ccc(NS(=O)(=O)c3cn(C)cn3)cc2CC1=O
→ -0.19	-32.0	-3.2	2.7
- CS(=O)(=O)N(CC(=O)Nc1ccc(I)cc1)C1CCCCC1
→ .	14.3	.	-0.8
- CN(C)/C=C/C(=O)C12CC3CC(CC(C3)C1)C2
→ -0.0704	-5.7	-39.7	-18.7
- Cc1cc2ccccc2n2c(SCC(=O)NCc3ccco3)nnc12
→ .	26.8	.	-0.1
- CNC[C@@H]1Oc2ccc(NS(=O)(=O)c3ccc(C)cc3)cc2CC(=O)N([C@@H](C)CO)C[C@@H]1C
→ -0.093	-5.4	-18.2	0.2
- COc1ccc(S(=O)(=O)Nc2ccc3c(c2)C(=O)N([C@@H](C)CO)C[C@H](C)[C@H](CN(C)S(=O)(=O)c2ccccc2)O3)cc1
→ -0.209	-7.8	9.9	0.6
- C[C@@H]1CN([C@@H](C)CO)C(=O)c2cccc(NS(C)(=O)=O)c2O[C@@H]1CN(C)Cc1ccncc1
→ -0.343	-5.7	-51.9	2.0
- CNC[C@H]1Oc2c(NC(=O)Nc3ccc4c(c3)OCO4)cccc2C(=O)N([C@H](C)CO)C[C@H]1C
→ -0.722	-11.6	8.0	-1.5
- C[C@@H]1CCCCO[C@@H](CN(C)C(=O)Nc2ccc(C(F)(F)F)cc2)[C@@H](C)CN([C@H](C)CO)C(=O)c2cc(NC(=O)CCCCCC(=O)Nc3ccccc3N)ccc2O1
→ -0.221	-5.8	.	-1.4
- CC(C)NC(=O)N(C)C[C@H]1Oc2ccc(NC(=O)CCN3CCOCC3)cc2C(=O)N([C@H](C)CO)C[C@H]1C
→ -0.0386	0.0	-9.4	1.0
- C[C@@H]1CCCCO[C@H](CN(C)Cc2ccc(Cl)c(Cl)c2)[C@@H](C)CN([C@H](C)CO)C(=O)c2cc(NC(=O)C3CCCCC3)ccc2O1
→ -0.0342	18.3	12.7	-2.6
- COc1ccc(NC(=O)CSc2nnnn2C)cc1
→ .	-62.5	.	-0.3
- Cc1cccc(NC(=O)c2cc(NC(=O)C3CCCCC3C(=O)O)ccc2N2CCCCC2)c1 (stereo not drawn)
→ .	23.2	.	0.7
- O=C1CCC=CC1(O)C(=O)OCc1cccc(O)c1OC1OC(CO)C(O)C(O)C1O (stereo not drawn)
→ -0.401	-4.6	-16.2	-0.1

# Source: PubChem (Broad Institute)

# This is a subset. The share of hits here may be higher or lower than overall.
